# gsp agonist = qHTS for Agonist of gsp, the Etiologic Mutation Responsible for Fibrous Dysplasia/McCune-Albright Syndrome: qHTS; gsp mutant cells, cAMP HTRF, 30 min; control for the full effect not named in the record; Potency, µM (highest dose often 76.9 µM), inactives show top-dose activation (cAMP increase), usual class: activators; 340,000 compounds, 0.13% hits; AID 624287, 2012; active = well fitted activation curve with a large enough effect; inconclusive = small, poorly fitted or top-dose-only effect, or another doubt; inactive = no such curve, though single readings can be large or run the other way; cell line not stated here;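 further: phosphodiesterase inhibitor Ro 20-1724 added with compounds to block cAMP breakdown; potency means the concentration at half of the fitted maximal effect; nearly all actives have a fitted effect of over 60% in size; about a fifth of the inactives were tested at one dose only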
#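 Cells in DMEM/10% FBS with G418 were pretreated with compounds in DMSO plus […] (300 uM stock) for 30 min at 37C. cAMP was measured by HTRF (cAMP-d2 plus anti-cAMP antibody-K) after 30 min at room temperature.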
# gsp antagonist = qHTS for Antagonists of gsp, the Etiologic Mutation Responsible for Fibrous Dysplasia/McCune-Albright Syndrome: qHTS. gsp-mutant cells, cAMP HTRF, 30 min; control for the full effect not named in the record. Potency, µM (highest dose often 76.9 µM), for inactives: at the highest dose activity change, negative = inhibition, actives largely listed as inhibitors. AID 624288, 2012. 340,000 compounds, 0.4% hits; active = falling curve of any shape with a large fitted effect; inconclusive = falling curve, mostly with a smaller effect; inactive = flat or rising curve; cell line not stated here;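 further: intracellular cAMP measured with PDE inhibitor Ro 20-1724 present during compound exposure; potency means the concentration at half of the fitted maximal effect; on the % scale 0 is the no-effect control and ±100 the full control effect; nearly all actives have a fitted effect of over 65% in size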
#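 Measurement of cellular cAMP by homogeneous time-resolved fluorescence following a 30 min compound exposure at 37C. The PDE inhibitor […] was present throughout; the assay buffer was DPBS with 0.05% BSA and 0.005% Tween 20.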
# D2 ag = Beta-Arrestin HTS for Positive Allosteric Modulators of the Human D2 Dopamine Receptor: Agonists; activation, % (concentration not given with the values); D(2) dopamine receptor (Homo sapiens), P14416; DiscoveRx PathHunter D2 beta-arrestin, luminescence, 90 min; 100% = 57 uM dopamine signal; 360,000 compounds, 0.084% hits; in the data active = activation above about 40%; inconclusive = about 15% to 40%; inactive = below about 15%; further: the text of the record calls up to 30% inactive
# Target sequence (P14416 whole entry, looked up): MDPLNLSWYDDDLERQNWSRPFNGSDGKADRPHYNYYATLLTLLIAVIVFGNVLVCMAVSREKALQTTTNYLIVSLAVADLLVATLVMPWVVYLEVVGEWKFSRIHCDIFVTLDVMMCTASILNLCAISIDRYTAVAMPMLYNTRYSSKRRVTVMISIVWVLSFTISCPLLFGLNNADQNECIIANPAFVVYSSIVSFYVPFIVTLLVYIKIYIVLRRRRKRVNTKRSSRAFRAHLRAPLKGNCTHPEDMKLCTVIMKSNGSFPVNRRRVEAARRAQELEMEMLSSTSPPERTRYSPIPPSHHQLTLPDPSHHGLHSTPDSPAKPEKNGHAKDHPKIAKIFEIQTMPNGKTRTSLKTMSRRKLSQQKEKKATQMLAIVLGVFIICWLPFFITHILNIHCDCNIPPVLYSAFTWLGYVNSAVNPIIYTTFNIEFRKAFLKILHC
#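 Agonist mode: compounds alone added to overnight-plated D2 PathHunter cells for 90 min at 37 C, with 57 uM final dopamine (EC100) defining full response. Beta-arrestin recruitment detected by chemiluminescent reagent, read after 1 h at ambient temperature.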
# Menin-MLL FL inh = qHTS Assay for Inhibitors Targeting the Menin-MLL Interaction in MLL Related Leukemias: Competition With Fluorescein Labeled MLL-derived Peptide | Fluorescence polarization, fluorescein-MLL peptide displacement from menin | FP activity change, % at 61.4 µM | 290,000 tested, under 10 active | AID 1766, 2009; inconclusive = falling polarisation curve, or a change in total fluorescence; inactive = total fluorescence flat and polarisation flat or rising; no compound was filed as active; the % refers to the polarisation; negative = inhibition;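 further: % of control where 0% means no effect; inhibitors lower the polarisation; unlabelled MLL peptide was the positive control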
# ClpP mod = qHTS Assay for Activators of ClpP | 340,000 compounds, 1.9% hits | AID 651965, 2013 | Potency, µM (top dose mostly 57.5 µM), without a hit: at the top dose activity change, negative = active | purified B. subtilis ClpP, FRET peptide cleavage, 20 min; active = well fitted falling curve with a large enough effect; inconclusive = small, poorly fitted or top-dose-only effect; inactive = no such curve, though single readings can be large or run the other way; further: potency means the concentration at half of the fitted maximal effect; the source files actives as falling curves though it sought activators and does not explain the sign; nearly all actives have a fitted effect of over 65% in size; many hits overshoot -100%
# Target sequence (P80244 whole entry, looked up): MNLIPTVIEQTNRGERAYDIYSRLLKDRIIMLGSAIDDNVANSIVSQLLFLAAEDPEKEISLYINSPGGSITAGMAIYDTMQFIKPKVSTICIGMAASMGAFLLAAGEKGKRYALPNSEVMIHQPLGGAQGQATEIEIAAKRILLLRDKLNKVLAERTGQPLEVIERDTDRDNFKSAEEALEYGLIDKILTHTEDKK
#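 FRET quenching reversal measured ClpP activation: 10 microg/mL B. subtilis ClpP at pH 8 with the FRET-FV decapeptide, read at 430 nm after 320 nm excitation. The 20-min minus 0-min signal was scaled between DMSO/no-enzyme wells and ADEP (5.8 microM final).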
# PINK1 expr mod = A Quantitative High throughput Screen to Identify Chemical Modulators of PINK1 Expression. 410,000 compounds, 0.2% hits. AID 624263, 2012. PINK1 immunofluorescence, high-content cytometry, 24 h. Potency, µM (highest dose often 76.6 µM), inactives show top-dose activation (PINK1 increase), actives largely listed as activators; active = well fitted activation curve with a large enough effect; inconclusive = small, poorly fitted or top-dose-only effect; inactive = flat fitted curve, though single readings scatter; cell line not stated here;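 further: potency means the concentration at half of the fitted maximal effect; % of control where 0% means no effect; nearly all actives have a fitted effect of over 65% in size; a mitochondrial uncoupler was the plate control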
#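 Stable cell line treated 24 h with compounds at 5 concentrations (CCCP controls), then fixed and immunostained for PINK1 plus nuclear and cell stains; PINK1 immunofluorescence quantified by laser-scanning microplate cytometry.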
# Sfp PPTase inh = qHTS Assay for Inhibitors of Bacillus subtilis Sfp phosphopantetheinyl transferase (PPTase). 4'-phosphopantetheinyl transferase ffp (Bacillus subtilis), Q9F4F7. Biochemical Sfp PPTase activity, qHTS. 310,000 compounds, 3.5% hits. AID 1490, 2009. Potency, µM, without a hit: max response, negative = inhibition, hits mostly inhibitors; active means well fitted inhibition curve with a large enough effect; inconclusive means small, poorly fitted or top-dose-only effect, or another doubt; inactive means no such curve, though single readings can be large or run the other way;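 further: the enzyme is Sfp with the accession as filed and its product quenches rhodamine fluorescence; potency means the concentration at half of the fitted maximal effect; 0% = enzyme reaction without inhibitor and -100% = no enzyme wells; top concentration of the series not given in the record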
#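 Fluorescence-quenching assay: 15 nM Sfp-PPTase preincubated 15 min at room temperature with compound, then 5 uM rhodamine-CoA and 12.5 uM BHQ-2-labelled YbbR peptide added. Fluorescence (ex 525/em 598 nm) read at start and after 30 min; difference gives rate.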
# * marks the source's active call; other numbers are inactive results; ? = inconclusive; . = not tested or not shown; [ ] = dose if it differs, or a comment.
SMILES,gsp agonist,gsp antagonist,D2 ag,Menin-MLL FL inh,ClpP mod,PINK1 expr mod,Sfp PPTase inh
O=C(CCN1CCCCC1)Nn1c(=S)[nH]c2ccccc2c1=O,16%,5%,-2.3,0.6,5.1%,-1.4%,50µM*
CCOCCCN(CCC#N)C(=O)C1CCN(S(=O)(=O)c2ccc(-n3cnnn3)cc2)CC1,28%[15.4 µM],-10%,7.1,0.8,0.7%,3.5%,12%
O=C(Nc1cccc(NC(=O)c2ccc(-c3ccc(Br)cc3)o2)c1)c1ccccc1,?,0%[15.4 µM],-3.3,3.8,521%,9.1%,?
O=[N+]([O-])c1ccc(OCCOCCOc2ccc([N+](=O)[O-])cc2)cc1,?,4%,-5.8,-3.2,0.0%,2.1%,-5%
COc1ccccc1-n1c(SCC(=O)N2CCCCC2)nc(O)c(Cc2ccccc2)c1=O,-29%,-8%,5.1,.,-1.3%,2.1%,-3%
O=C(NCCSc1ccccc1)c1cccnc1,2%,9%,-1.7,-1.0,-2.0%,-2.4%[38.3 µM],-9%
COc1ccc(C2(CNS(=O)(=O)c3ccc(C)cc3)CCOCC2)cc1,10%[15.4 µM],-5%,2.2,-0.1,.,-0.7%,15%
C/C(=N\NC(=O)CCCNc1ccc(C)cc1)c1ccccn1,2%,7%,0.4,0.2,-1.1%,-1.8%,-4%
Cc1ccccc1-c1cc2nc(NCCN3CCNC3=O)n(C)c(=O)c2s1,.,.,-5.6,.,-28%,4.7%,.
CS(=O)(=O)c1ccc(Cl)c(NC(=O)COc2ccc3c(c2)CCC3)c1,-28%,5%,-4.3,.,-2.0%,?,.
O=C1CCc2ccccc2N1,-37%[inhibitor],15%,-3.2,-0.5,1.2%,0.6%,23%
C/C(=N\Nc1nc(N2CCCCC2)nc(N2CCOCC2)n1)c1ccccc1O,25%,-23%,1.9,0.3,.,0.3%,0%
O=C(NCc1csc2ccc(Cl)cc12)Nc1cccc2ccccc12,-7%[15.4 µM],-25%,-6.7,1.5,1.4%,1.3%,15%
CC1Sc2ccc(S(=O)(=O)CCC(=O)N3CCN(c4ccccc4F)CC3)cc2NC1=O (stereo unspecified),14%,-19%,-5.5,4.1,1.7%,1.3%,20%
O=C(O)C(NS(=O)(=O)c1cccc2nsnc12)c1ccccc1 (stereo unspecified),33%,12%,-0.5,7.4,-0.3%,-0.1%,12%
O=C1C2C3C=CC(C3=C(c3ccccc3)c3ccccc3)C2C(=O)N1CCO (stereo unspecified),-4%,?,-2.0,1.7,-6.7%,-4.1%,5%
COc1ccccc1CNC(=O)COC(=O)C1CCN(S(=O)(=O)c2ccc(C)c(C)c2)CC1,-15%,5%,2.5,.,-2.7%,0.2%,.
COCCN(C(=O)CCCC(=O)Nc1ccccn1)C(C(=O)NC1CCCCC1)c1ccc(C)cc1 (stereo unspecified),26%,1%,-2.5,3.6,-0.5%,2.3%,1%
Cn1c(=O)oc2cc(S(=O)(=O)N3CCC(C(=O)N4CCN(c5ccc(F)cc5)CC4)CC3)ccc21,9%,15%,6.7,-2.0,-4.3%,3.7%,0%
Cc1cccc(-c2cc3nc4c(c(N5CCCC(O)C5)n3n2)CCC4)c1 (stereo unspecified),9%,-3%,-2.5,4.0,-11%,?,-15%
Cc1ccc(N=Nc2c(O)ccc3n[nH]nc23)cc1,39%,?,-2.6,8.9,1.6%,0.0%,-27%
CCOc1ccccc1N(CC(=O)NC1CCCCC1)S(C)(=O)=O,-8%,18%,-4.5,6.5,-0.1%,-3.7%,-6%
Cc1cc(C(=O)CSc2nncn2C)c(C)n1-c1ccccc1,-5%,14%,-2.0,0.1,.,9.1%,7%
COc1ccc(NS(=O)(=O)c2cccc(NC(=O)c3ccccn3)c2)cc1,11%,-13%,-1.1,2.7,1.0%,1.1%,-9%
OC(c1ccc(F)cc1)c1ncc(-c2ccc(Oc3ccccc3)cc2)[nH]1 (stereo unspecified),.,.,-2.5,.,-3.5%,?,.
C/C(=N\NC(=O)c1ccccc1F)c1cccc(NC(=O)c2ccccc2)c1,?,4%,0.0,.,?,7.8%,18%
CN(C)C(=O)c1cccc(-c2ccc3nncn3c2)c1,.,.,-5.8,.,-12%,0.8%,.
CC(=O)Nc1ccc(N2C(=O)C3C4CC(=O)C(c5ccccc54)C3C2=O)cc1 (stereo unspecified),20%,12%,3.2,3.0,0.0%,4.2%,8%
CSc1ncccc1C(=O)N1CCN(S(=O)(=O)c2cc(C)ccc2C)CC1,-14%,-1%,0.8,.,.,-0.7%,3%
CC(C)(C)c1ccc(CS(=O)(=O)CC(O)CN2CCCC2=O)cc1 (stereo unspecified),24%,3%,-4.1,51[activator],.,3.5%,17%
O=C(OCC(=O)N1CCN(c2ccccc2)CC1)c1ccc2ccccc2n1,0%,-10%,-1.1,0.1,-9.1%,3.9%[38.3 µM],9%
COc1cccc(N2CC(C(=O)Nc3nnc(SCC(=O)Nc4cc(C)on4)s3)CC2=O)c1 (stereo unspecified),12%[15.4 µM],0%,3.3,8.4,-13%,-0.4%,-7%
CC1(C)Cc2ccccc2C(N/N=C/c2ccc([N+](=O)[O-])cc2)=N1,16%,-17%,1.6,0.0,1.5%,10%,6%
CSc1ccc(/C=N/S(=O)(=O)c2ccccc2)cc1,48%,16%,-5.5,4.4,-0.7%,1.3%,16%
Brc1cccc(CN2CCN(c3ncccn3)CC2)c1,-57%[inhibitor],2%,73*,0.5,.,1.1%,-8%
CN(CC(=O)Nc1ccc(Cl)c(C(F)(F)F)c1)C(=O)C1CCC1,-47%[inhibitor],11%,-5.1,.,0.5%,-2.1%,.
CC1CN(S(=O)(=O)c2ccc(C(=O)NCCCn3ccnc3)cc2)CC(C)O1 (stereo unspecified),2%,6%,-0.9,0.0,.,6.5%,14%
CCOC(=O)c1c(C)n(C)c2cc(-c3ccc(F)cc3)c(O)cc12,-18%,6%,5.9,5.6,-8.5%,-1.0%,14%
COc1cc(OC)cc(C(=O)Nc2ccc(S(=O)(=O)N(C)C)cc2)c1,-3%,-31%,-3.3,8.3,-0.6%,8.9%[38.3 µM],5%
Cc1ccc(F)c(NC(=O)c2c(-c3ccccc3)noc2C)c1,10%,0%,2.4,.,0.8%,-0.7%,5%
O=C(NCc1cccc(C(F)(F)F)c1)c1ccc(=O)[nH]c1,-16%[15.4 µM],7%,-3.5,-4.3,.,1.9%,7%
Clc1cccc(CON/C=N/c2ncnc3sccc23)c1,-1%,-16%,0.7,-1.7,-3.5%,2.1%,-18%
Cc1cc(C(F)F)n2ncc(C(=O)N3CCCCC3)c2n1,0%,-6%,-3.3,2.4,-0.1%,-1.3%,12%
Cc1ccc2oc(=O)n(CCCOc3ccccc3C)c2c1,19%[15.4 µM],-8%,-2.5,-5.7,.,0.2%,-7%
FCCCOc1ccc(CN2CCN(c3ccccc3F)CC2)cc1,-1%[15.4 µM],13%,8.3,1.1,0.2%,4.4%,13%
Cc1cc(C)n(-c2ccc(C(=O)OCC(=O)N3CCN(c4ccccc4)CC3)cc2)n1,22%,0%,3.0,.,1.4%,0.9%,.
Cc1c(NC(=O)C(C)OC(=O)c2cc(Cl)nc(Cl)c2)c(=O)n(-c2ccccc2)n1C (stereo unspecified),-2%[15.4 µM],0%,5.0,3.8,-0.6%,0.7%,12%
Cc1csc(NC(=O)c2nc3nccc(C)n3n2)n1,10%,6%,-1.4,3.3,-1.2%,-2.0%,5%
O=C(c1ccoc1)N1CCC2(CC1)Oc1ccc(Cl)cc1C(=O)C21CC(c2ccc(Cl)cc2)=NO1 (stereo unspecified),.,-2%,1.7,1.0,-5.4%,-0.6%,4%
O=C(Nc1ccc(N2CCN(c3ccccc3)CC2)c(F)c1)C1CC1,-32%[inhibitor],8%,-1.9,-0.4,-1.4%,1.9%,14%
COc1ccccc1N1CCN(c2ccnc3cc(Cl)ccc23)CC1,21%,10%,-1.0,1.8,.,5.2%,-30%
CC1CCCN(c2nc3ccsc3c(=O)s2)C1 (stereo unspecified),8%,?,-0.7,2.2,-27%,-13%[38.3 µM],-15%
CC1CCCN(C(=O)COC(=O)c2n[nH]c3ccccc23)C1 (stereo unspecified),-40%[inhibitor],4%,-0.8,0.3,22µM*,-1.4%,10%
Cc1ccc2oc(C(=O)Nc3cc(C)on3)c(C)c2c1,10%,9%,-5.1,.,-18%,1.8%,.
OCCC1CN(Cc2cccn2-c2ccccn2)CCN1Cc1ccccc1 (stereo unspecified),-4%,3%,-2.5,-1.3,-1.9%,-1.1%,9%
CC1Nc2ncnc(N3CCOCC3)c2N(Cc2ccccc2)C1=O (stereo unspecified),-4%,7%,-3.1,.,0.1%,1.5%,.
O=C(NCC(c1ccco1)N1CCCCC1)c1ccc(S(=O)(=O)Nc2ccccc2Cl)cc1 (stereo unspecified),-48%[inhibitor],-6%,1.5,.,-2.1%,-0.8%,.
C=CCN1C(=O)C(Cc2ccc(OCC)cc2)S/C1=N\N=C\c1cccs1 (stereo unspecified),2%,-2%,-0.1,3.8,0.8%,1.6%,11%

# Marked active in Sfp PPTase inh, of those listed so far:
Structure | gsp agonist | gsp antagonist | D2 ag | Menin-MLL FL inh | PINK1 expr mod | Sfp PPTase inh
O=C(CCN1CCCCC1)Nn1c(=S)[nH]c2ccccc2c1=O | 16% | 5% | -2.3 | 0.6 | -1.4% | 50µM*

# Source: PubChem

# An unsorted share of the library (roughly 5.1% active in at least one column).
